# GIV-Gai inh: inhibitors of GIV peptide binding to Galpha-i3, primary screen, biochemical, fluorescence polarization, FITC-GIV GBA peptide, rat Galphai3 | 90 min; stronger effect = lower value; scaled: aluminum fluoride 0%, vehicle 100% | percent of control (FP), % (test concentration not listed) | 210,000 compounds, 0.42% hits | AID 1224905, 2016;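 active = replicate mean at 85% of control or lower, very high polarization wells dropped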;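 also: wells of about 15 µL received 100 nL stock; the first replicate is given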
# Target sequence (P08753 whole entry, looked up): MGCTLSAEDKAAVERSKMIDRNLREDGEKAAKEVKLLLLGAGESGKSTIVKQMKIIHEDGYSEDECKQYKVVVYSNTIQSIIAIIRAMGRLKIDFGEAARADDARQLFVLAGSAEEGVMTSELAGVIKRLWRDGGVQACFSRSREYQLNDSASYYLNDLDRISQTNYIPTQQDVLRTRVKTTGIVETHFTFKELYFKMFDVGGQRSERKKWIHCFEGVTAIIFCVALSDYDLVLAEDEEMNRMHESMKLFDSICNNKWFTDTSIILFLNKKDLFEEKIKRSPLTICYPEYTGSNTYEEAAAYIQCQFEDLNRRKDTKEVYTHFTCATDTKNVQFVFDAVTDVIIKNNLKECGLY
# HCMV UL50-53 inh: inhibitors of HCMV UL50-UL53 interaction, biochemical, HTRF; HCMV UL50-UL53 nuclear egress complex (human cytomegalovirus); normalized percent inhibition; inhibition, % (test concentration not listed); 190,000 compounds, 0.15% hits;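 active = both replicates at 50% or more, plus weaker picks with an unusually low signal ratio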;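 also: stock transfer was 100 nL into about 20 µL; 0% = negative control wells and 100% = wells with untagged competitor protein; inactives centre near -12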
# Sa growth inh: S. aureus growth inhibition at 42 and 30 °C, primary screen, LtaS inhibitor project, RN4220, two temperatures | AID 720641, 2013 | relative growth, % (concentration not given with the values) | OD600, 20 h, 42 °C; stronger effect = lower value | 170,000 compounds, 0.53% hits;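 active = growth at 42 °C up to 50% and 20 or more points under that at 30 °C, or under 10% at both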;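 also: 300 nL library stock went into each well; scaled to the means of positive and negative controls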
# Sa growth inh second temp: further read-out of Sa growth inh, marked with its call; relative growth, %; measured here: growth at 30 °C;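 optical density after 20 h as mean of two plates; 100% = untreated growth and lower means inhibition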
# Numbers without * were called inactive; / = not tested or not shown; & = joins results of further samples. Rows are unselected. Share with any hit: about 0.8%.
SMILES,GIV-Gai inh,HCMV UL50-53 inh,Sa growth inh,Sa growth inh second temp
CCc1ccc(CN(C(=O)c2cc(=O)c3ccc(C)cc3o2)C2CCS(=O)(=O)C2)cc1 (stereo unspecified),101,11,105,84
CSc1nn(CSc2c(Cl)cccc2Cl)c(=S)s1,109,-3,103,100
CCN(CC)CCCNC1=NCC(C)S1 (stereo unspecified),/,-2,91,92
CCOC(=O)c1cnc2cc(C(F)(F)F)ccc2c1Nc1c(C)n(C)n(-c2ccccc2)c1=O,100,-9,97,87
CCn1cc(C(=O)N(C)Cc2ccccc2)c2cc(OC)c(OC)cc2c1=O,106,/,86,77
COCCOC(=O)c1cnn2c(C(F)(F)F)cc(-c3ccccc3)nc12,108,-29,/,/
COc1ccc(/C=c2\[nH]c(=O)/c(=C\c3ccc(OC)cc3)[nH]c2=O)cc1,/,-4,111,90
CCOc1ccc(NC(=O)C2CCN(C(=O)Cc3ccccc3)CC2)cc1,103,-2,102,85
Cc1cc(=O)oc2c3c(ccc12)OCN(Cc1ccc(Cl)cc1)C3,99,-18,95,89
CCCN1CCc2nc(N3CCN(c4ncccn4)CC3)ncc2C1,107,/,99,91
CC1=C(c2ccc(C)cc2)S(=O)(=O)NC1=NCCCN1CCN(c2cc(C)ccc2C)CC1,103,1,98,83
O=C1C=CC(=O)N1c1ccc(C(F)(F)F)cc1,107,-4,90,62
COC(=O)CSc1nc(-c2ccc(F)cc2)cc(C(F)(F)F)n1,109,15,113,109
CCSc1nc2ccccc2c(=O)n1-c1c(C)n(C)n(-c2ccccc2)c1=O,/,-10,98,91
Cc1cc(C)n(CC(=O)Nc2ccc(F)c(F)c2)c(=O)c1C#N,97,/,81,87
CCOC(=O)C(CC)Sc1nnc2[nH]c(=O)cc(C)n12 (stereo unspecified),96,/,98,92
O=C(Nc1cccc(O)c1)c1cc(C2CC2)on1,109,0,116,100
CC(=O)NCc1cccs1,/,-4,112,84
Cc1ccc(C(=O)NCCc2cccs2)cc1,96,-24,95,98
COc1ccccc1N(Cc1nc2nc(C)cc(=O)n2[nH]1)S(=O)(=O)c1ccccc1,107,-24,/,/
CCC(C)c1ccccc1N=Cc1ccsc1 (stereo unspecified),/,-21,113,87
Cc1cc(NC(=O)c2c(F)cccc2Cl)no1,/,-3,103,93
COc1ccc(N=CN(C)C)cc1OC,/,-25,93,95
COc1ccc(CCNc2nccc(=O)[nH]2)cc1OC,/,-12,115,78
CCn1c(C(=O)O)c(CC(=O)NCCC2=CCCCC2)c2ccccc21,92,-10,/,/
Cc1ccc(-n2nc3c(N4CCC(C(=O)NCCC(C)C)CC4)nnc(C)c3c2C)cc1,108,/,92,102
Cc1c(C(=O)N2CCCC2)oc2c1-c1nn(CC(=O)NC(C)c3ccc4c(c3)OCCO4)cc1CC2 (stereo unspecified),105,-28,104,75
N#Cc1c(-c2ccccc2)c(C#N)c2sc3ccccc3n2c1=O,/,7,117,95
COc1ccc(OCC(O)Cn2c(N3CCOCC3)nc3c2c(=O)n(C)c(=O)n3C)cc1 (stereo unspecified),95,-21,/,/
COc1ccc(C2CC(=O)C=C(NCC3CCCO3)C2)cc1 (stereo unspecified),98,-14,92,86

# Of the compounds above, these contain fluorine:
SMILES,GIV-Gai inh,HCMV UL50-53 inh,Sa growth inh,Sa growth inh second temp
CCOC(=O)c1cnc2cc(C(F)(F)F)ccc2c1Nc1c(C)n(C)n(-c2ccccc2)c1=O,100,-9,97,87
COCCOC(=O)c1cnn2c(C(F)(F)F)cc(-c3ccccc3)nc12,108,-29,/,/
O=C1C=CC(=O)N1c1ccc(C(F)(F)F)cc1,107,-4,90,62
COC(=O)CSc1nc(-c2ccc(F)cc2)cc(C(F)(F)F)n1,109,15,113,109
Cc1cc(C)n(CC(=O)Nc2ccc(F)c(F)c2)c(=O)c1C#N,97,/,81,87
Cc1cc(NC(=O)c2c(F)cccc2Cl)no1,/,-3,103,93

# Carrying on:
SMILES,GIV-Gai inh,HCMV UL50-53 inh,Sa growth inh,Sa growth inh second temp
O=C(CCS(=O)(=O)Cc1ccccc1)n1nnc2ccccc21,104,2,98,103
N#CCSC1=N/C(=C/c2ccco2)C(=O)N1c1ccc(OC(F)F)cc1,/,-40,89,79
C1=CC2CC1CC2CNCc1ccco1 (stereo unspecified),/,-9,102,87
O=C(c1ccc2ncccc2c1)N1CCN(c2ccccc2)CC1,99,-7,100,84
CNC(=O)c1ccc2c(c1)N(C)C(=O)CO2,99,6,/,/
CCCC1C(c2ccccc2)C2(C#N)C(=O)NC1(O)CC2(C#N)C#N (stereo unspecified),/,-4,115,90
Cc1ccc(C2=NN(C(=O)COC(=O)Cn3nc(-c4ccccc4)oc3=O)C(c3ccco3)C2)cc1 (stereo unspecified),/,-16,84,81
C=CCn1c(=N)c(C(=O)OC)cc2c(=O)n3cccc(C)c3nc21,93,/,80,91
CC1=C(C(=O)OCc2ccccc2)C(c2ccc3c(c2)OCO3)C2=C(CC(c3ccccc3)CC2=O)N1 (stereo unspecified),107,13,/,/
N#CCSc1nc2cc(C(=O)NC3CCCCC3)ccc2c(=O)n1Cc1ccccc1,102,-2,119,87
COc1cc(OC)cc(-n2c(=O)c3ccccc3n(Cc3cc(=O)n4ccccc4n3)c2=O)c1,109,/,85,82
CCOC(=O)c1sc2ncn(CC(=O)Nc3ccc(C)cc3)c(=O)c2c1C,105,-23,/,/
COC(=O)c1sccc1Oc1ccc(C(F)(F)F)cc1NC(=O)/C=C/C(=O)O,100,-16,90,93
Cc1nc(-n2nc(C)c(Cc3ccc(Cl)cc3)c2C)sc1C(=O)N1CCCCC1C (stereo unspecified),110,3,98,104
COC(=O)c1ccccc1NC(=O)c1cc2nc(-c3ccc(OC)cc3)cc(C(F)(F)F)n2n1,100,-13,87,84
NC(=O)OCC(COC(N)=O)c1ccccc1,104,4&9&-87&-29,89&102,86&104
COCCOC(=O)C1=C(C)NC(=O)NC1c1cc(Br)c(O)c(OC)c1 (stereo unspecified),100,-9,/,/
O=C1c2ccccc2C(=O)N1Cc1nc2ncccc2[nH]1,110,-35,91,88
CC(OC(=O)c1ccc(S(=O)(=O)N2CCCC2)cc1)C(=O)N1CCc2ccccc21 (stereo unspecified),/,6,91,97
Cc1nc(-n2nnc3cc(C)c(C)cc32)c2c3c(sc2n1)CCCC3,107,/,90,87
O=[N+]([O-])c1ccc(N2CCOCC2)cc1Sc1nc2ccccc2[nH]1,97,-66,/,/
COC(=O)c1ccc(C2C=C(c3ccc(Cl)cc3)Nc3nc4ccccc4n32)cc1 (stereo unspecified),106,/,69,23
COC(=O)CN1C(=O)c2cccnc2Sc2ccccc21,106,-20,104,90
CS(=O)(=O)N1Cc2ccccc2CC1C(=O)N1CCN(C(=O)c2cccs2)CC1 (stereo unspecified),/,-8,100,89
COc1ccc(C(C#N)OC(C)=O)c(OCc2ccccc2)c1OC (stereo unspecified),/,-7,103,90
COc1cccc(OCC(=O)NCC(C)C)c1,103,-3,102,85
Cc1ccccc1CN1CCC(CN)CC1,104,6,100,91
CC(=O)C1=C(c2ccc(F)cc2)N(C(C)=O)n2c(nnc2C2CCCCC2)S1,100,/,109,89
COc1ccc(-c2coc3c(C)c4oc(=O)c5c(c4cc23)CCCC5)cc1F,101,/,104,101
CN(CCN1CCOCC1)C1CCN(C(=O)CNC(=O)/C=C/c2cccc(C(F)(F)F)c2)CC1,110,-4,97,97
O=C(c1cccc2ccccc12)c1nc2c(n1O)CCCC2,101,-50,127,88
COc1cc(NC(=O)CSc2ncc3c(n2)-c2ccc(Cl)cc2N(Cc2ccccc2)S3(=O)=O)cc(OC)c1,98,/,90,91
COc1ccc(C2=NN(C(=O)CCC(=O)O)C(Cc3cc4cccc(C)c4nc3Cl)C2)cc1 (stereo unspecified),104,-29,/,/
COc1ccc(-c2nn(-c3cccc(F)c3)c3c2cnc2cc(OC)c(OC)cc23)cc1,103,/,73,89
CCn1c(=O)cc(SCC(=O)NCCCN2CCCC2)c2ccccc21,98,/,81,87
COc1ccc(S(=O)(=O)Nc2c(-n3cnnc3)nn(C)c2C)cc1,100,-16,/,/
Cc1c(Cl)cccc1NC(=O)CSc1nc(=O)n(Cc2ccccn2)c2c1CCC2,102,/,106,96
CCN(CC)CCN1C(=O)C(=O)/C(=C(/O)c2ccc3c(c2)OCCO3)C1c1cccc(Cl)c1 (stereo unspecified),101,-15,105,95
CCc1ccc(-n2nnc(-c3nc(-c4ccc(C)cc4)no3)c2N)cc1,104,/,102,92
O=C(Nc1ncn(CC(=O)N2CCN(c3ccccc3)CC2)n1)c1ccccc1,113,-7,/,/
CC1=C(C(=O)OCc2ccccc2)C(c2ccccc2)NC(=O)N1C (stereo unspecified),103,-32,89,78
CCC1SC2=NCN(c3ccccc3)CN2C1=O (stereo unspecified),98,/,90,75
COc1ccc2nc(N3CCN(C(=O)C4CC4)CC3)sc2c1,111,/,119,95
Cc1ccccc1Cc1c(C)nc2nc(SCC(=O)NCC3COc4ccccc4O3)nn2c1C (stereo unspecified),97,-1,/,/
COc1cc(OC)c(C2=NOC(C(=O)NCCCN3CCOCC3)C2)cc1Cl (stereo unspecified),105,-9,114,101
COc1cccc(C(=O)Nc2ccc(N3CCCC3)cc2)c1,113,-11,113,100
O=C(NCc1ccc2c(c1)CCN2C(=O)c1ccccc1)c1ccc(Br)o1,104,/,98,77
CCc1ccc(CNC(=O)c2c3c(nc4ccccc24)C(=O)N(C2CCCCC2)C3)cc1,99,/,104,93
O=C(c1ccccc1)N1CCN(S(=O)(=O)N2CCCCCC2)CC1,100,-8,88,84
O=C(Nc1cccc(F)c1)c1cc2ccccn2n1,102,-32,/,/
N#CC1=C(N)Oc2n[nH]c(-c3cccc([N+](=O)[O-])c3)c2C1c1ccccc1C(F)(F)F (stereo unspecified),101,-17,/,/
NC(N)=NC(N)=Nc1ccc(Cl)cc1Cl,99,-1,100,90
O=C(Cn1cc(SCc2ccc(C(F)(F)F)cc2)c2ccccc21)N1CCOCC1,107,/,160,114
COc1cc(Br)c(C2C(C#N)=C(C)NC3=C2C(=O)CC(c2ccc(Cl)cc2)C3)cc1OC (stereo unspecified),103,-22,/,/
O=C(Cc1ccc(Cl)cc1)n1cc(Cl)cn1,107,10,80,98
c1ccc(CN2CCOCC2)cc1,/,1,96,92
O=C(Cn1ncc2c3ccccc3n(Cc3ccccc3)c2c1=O)N1CCOCC1,102,/,105,84
CCCCc1ccc(NS(=O)(=O)CC23CCC(CC2=O)C3(C)C)cc1 (stereo unspecified),/,10,74,97
O=c1[nH]c2cc([N+](=O)[O-])ccc2nc1Cc1ccc(Cl)c([N+](=O)[O-])c1,107,-41,/,/
COCCNC(=O)CN1C(=O)C(C)CSc2ccc(S(=O)(=O)N3CCOCC3)cc21 (stereo unspecified),104,-5,/,/

# The listing continues:
SMILES,GIV-Gai inh,HCMV UL50-53 inh,Sa growth inh,Sa growth inh second temp
CCN(Cc1nc(-c2ccc(OC)c(OC)c2)no1)C(=O)Cc1cccc2ccccc12,103,3,86,96
COc1ccc(C(=O)Nc2ccc(-c3cc(C(F)(F)F)nn3-c3ccccc3)cc2)cc1OC,102,/,129,100
O=C(O)c1ccc2c(c1)CCN2,/,-11,114,99
O=C(CNS(=O)(=O)c1cccs1)N1CCN(c2cccc(C(F)(F)F)c2)CC1,128,/,120,90
NS(=O)(=O)c1ccc(Nc2c3c(nc4ccc(Cl)cc24)CCC3)cc1,98,-2,124,84
CC(O)CNC(=O)c1sc2ccccc2c1Cl (stereo unspecified),/,-43,130,84
COc1cccc(-c2nc3n(c2C(=O)NC2=NCCS2)CCS3(=O)=O)c1,105,-5,/,/
Cc1ccc(C(=O)Nc2nc3nc(C)cc(=O)n3[nH]2)cc1,103,-12,108,86
CC(C)N(C(=O)CSc1nnc(-c2cccnc2)n1Cc1ccccc1)C(C)C,99,-24,93,97
Cc1cc2nc[nH]c2cc1C,101,-15,97,86
CC(C)Nc1nc(NC(C)C)nc(C(N)=O)n1,107,14,92,87
Cc1cc(C(=O)OCCOc2ccc(Br)cc2)c(C)o1,/,-20,100,94
COc1cccc(C(=O)Nc2nc3nc(C)c(Cc4ccccc4)c(=O)n3[nH]2)c1,104,3,103,99
COC(=O)c1c(NC(=O)CCCOc2ccccc2)sc2c1CCC(C)C2 (stereo unspecified),102,-51,93,82
CN1C(=O)C2(c3ccccc31)N(c1cccc(Cl)c1)C(=O)CS2(=O)=O (stereo unspecified),116,-11,89,82
O=C1NC(=O)/C(=C/C(=O)N2CCCCC2)S1,100,-31,90,86
CSc1nsc(SC)c1NC(=O)N1CCCCC1,/,-12,111,84

# Entries shown so far with a nitro group on carbon:
SMILES,GIV-Gai inh,HCMV UL50-53 inh,Sa growth inh,Sa growth inh second temp
O=[N+]([O-])c1ccc(N2CCOCC2)cc1Sc1nc2ccccc2[nH]1,97,-66,/,/
N#CC1=C(N)Oc2n[nH]c(-c3cccc([N+](=O)[O-])c3)c2C1c1ccccc1C(F)(F)F (stereo unspecified),101,-17,/,/
O=c1[nH]c2cc([N+](=O)[O-])ccc2nc1Cc1ccc(Cl)c([N+](=O)[O-])c1,107,-41,/,/
